# CBX7 inh – CBX7 inhibition, primary AlphaScreen. O95931. hit rate 1.1% among 66,000. AlphaScreen His6-CBX7 / biotin-H3K27me3 peptide binding; stronger effect = lower value. normalised signal (fraction of DMSO) (no concentration beside the values); in the data active = normalised signal below about 0.5;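 also: 100 nL library stock added to about 20 µL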
# Target sequence (O95931 whole entry, looked up): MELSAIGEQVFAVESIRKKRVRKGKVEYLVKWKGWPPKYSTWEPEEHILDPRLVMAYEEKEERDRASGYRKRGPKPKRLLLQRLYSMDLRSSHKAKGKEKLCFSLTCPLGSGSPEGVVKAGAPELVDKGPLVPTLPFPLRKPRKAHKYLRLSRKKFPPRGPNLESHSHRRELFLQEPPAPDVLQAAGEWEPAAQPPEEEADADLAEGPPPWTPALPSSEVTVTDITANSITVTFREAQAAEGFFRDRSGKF
# CBX7 inh z-score – further read-out of CBX7 inh, marked with its call; z-score; measured here: z-score of CBX7 signal; some inactives read as strong as hits; reference of the scale not given here;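 same signal on another scale; lower means less binding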
# Numbers without * were called inactive; & = joins results of further samples.
smiles	CBX7 inh	CBX7 inh z-score
CCC(C(=O)NCCc1ccc(Cl)cc1)N1C(=O)COc2ccc(C(C)(C)C)cc21 (configuration not stated)	1.1	3.3
Cc1ccc(NC(=O)Cn2cnc3scc(-c4ccc(C)cc4)c3c2=O)cc1	0.84	-3.5
COc1ccc2c(c1)c(C(=O)N1CCN(C)CC1)c(C)n2-c1ccccc1	1&1	0.83&0.55
Cc1ccc(CNC(=O)C(NS(=O)(=O)c2cccs2)C(C)C)cc1 (configuration not stated)	1	0.28
O=C(Nc1ccc2oc(-c3ccc(Cl)cc3)nc2c1)c1ccccc1	0.98	-0.59
COc1ccc2cc(-c3csc(Nc4ccc(F)cc4)n3)c(=O)oc2c1	1.2	2
COc1cccc(N2C(=O)C(CC(=O)Nc3ccccc3)N(CCc3sccc3C)C2=O)c1 (configuration not stated)	0.98	-0.63
COc1ccc(-n2ccnc2SCC(=O)Nc2nc3ccc(C)cc3s2)cc1	1.1	0.078
COc1cc(OC)c(OC)cc1CN1CCN(Cc2ccc(C)cc2)CC1	0.97	-0.62
O=C(NC1CCCC1)C1CCN(C(=O)c2cc3sccc3n2Cc2ccc(F)cc2)CC1	1	0.21
Cc1ccc(-c2csc(NC(=O)COc3cc(C)ccc3C(C)C)n2)cc1	1	0.51
O=C(c1cc2sccc2n1Cc1ccc(Cl)cc1)N1CCC(C(=O)N2CCCCCC2)CC1	0.9	-4.2
Cc1ccc(C)c(OCC(=O)Nc2nc(-c3ccc(Br)cc3)cs2)c1C	1.2	2
COC(=O)c1c(NC(=O)c2cccc(Cl)c2)sc2c1CCC(C)C2 (configuration not stated)	1.5	7.3
COc1ccc2c(c1)CCc1sc(NC(=O)c3cc(Cl)ccc3OC)nc1-2	1.1	2
Cc1ccc(S(=O)(=O)Nc2ccccc2CNc2ccccn2)cc1	0.9	-0.24
Cc1oc(-c2ccccc2Cl)nc1CS(=O)(=O)CC(=O)NCCCSC1CCCCC1	0.98	-0.43
Cc1c(C(=O)NCCc2ccccc2)oc2ccc(S(=O)(=O)N3CCOCC3)cc12	1.1	0.9
Cc1cccc(NC(=O)Cn2cc(S(=O)(=O)c3ccccc3)c(=O)c3cc(C)ccc32)c1	0.86	-1.9
CCOc1ccc(N2CC(C(=O)NCCc3ccccc3)CC2=O)cc1 (configuration not stated)	0.97	-0.79
CCn1c(=O)c(C(=O)NCc2ccccc2)c(O)c2ccccc21	1.4	2.8
COc1ccc(N(C)S(=O)(=O)c2ccc3c(c2)CCN3C(C)=O)c(OC)c1	1.1	0.58
Cc1ccc(NC(=O)C2CCN(S(=O)(=O)c3cnc[nH]3)CC2)cc1F	1.1	0.94
Cc1onc(-c2ccccc2Cl)c1C(=O)Nc1nnc(SCC(=O)Nc2nccs2)s1	1	0.018
CCCN1Cc2cccc(C(=O)Nc3ccccc3Br)c2C1=O	0.91	-2.3
O=C(CSc1nnc(-c2ccccc2Cl)o1)Nc1nccs1	0.98	-0.22
CCN1CCCC1CNC(=O)c1ccc2c(c1)N(Cc1ccccc1F)C(=O)c1ccccc1S2 (configuration not stated)	1	1.1
Cc1cccc(C(=O)NCCc2cc3ccc(C)cc3[nH]c2=O)c1	1	0.26
Cc1nc(NCc2ccc(F)cc2)c2c(C)c(C)sc2n1	1.1	5.9
O=C(CCc1nc2sc3c(c2c(=O)[nH]1)CCCC3)NCCc1c[nH]c2ccccc12	1.1	0.68
O=C(Cn1ccc2ccccc2c1=O)NCC(=O)N1CCN(c2ccccc2)CC1	0.98	-0.19
COc1ccccc1-c1cc(C(=O)Nc2ccc(C)cc2)no1	1	-0.018
Cc1cccc(OCC(=O)Nc2cc3nn(-c4ccccc4)nc3cc2C)c1	1.2	1.1
CCN(CC)CCCNC(=O)c1cc(Nc2ccc(C(C)C)cc2)nc2ccccc12	1.3	0.26
Cc1ccc(NC(=O)CCc2nnc3ccc(NC4CCCC4)nn23)cc1C	1	0.044
COc1ccc(C(=O)Nc2ccccc2-c2nc3ccccc3s2)c(OC)c1	1.2	4.3
Cc1cc2ncn(CC(O)COCC3CC=CCC3)c2cc1C (configuration not stated)	0.65	-2.3
Cc1ccc(N2C(=O)CC(NCc3ccccc3F)C2=O)cc1 (configuration not stated)	0.99	-0.13
O=C(Nc1ccc2oc(-c3cccc(Cl)c3)nc2c1)c1cccc(F)c1	1	0.33
CC1CCCC(C)N1CCNC(=O)c1ccc2c(c1)ncn2C1CCCC1 (configuration not stated)	1	1.1

# One compound at a time, from the list above.
# CC1CCCC(C)N1CCNC(=O)c1ccc2c(c1)ncn2C1CCCC1 (configuration not stated) in the list: CBX7 inh = 1; CBX7 inh z-score = 1.1
# Cc1ccc(N2C(=O)CC(NCc3ccccc3F)C2=O)cc1 (configuration not stated) in the list: CBX7 inh = 0.99; CBX7 inh z-score = -0.13

# (listing goes on)
smiles	CBX7 inh	CBX7 inh z-score
COc1ccc(CNC(=O)c2cc(-c3ccc(Cl)cc3)on2)cc1	1	1.5
Nc1nonc1C(=O)NCCO	1.2	1.3
Cc1nn(Cc2ccc(Cl)cc2)c(C)c1NC(=O)c1cc(-c2ccco2)on1	1.1	1.8
Cc1ccc(CN2C(=O)c3ccccc3C2C(=O)NCCCN2CCCC(C)C2)cc1 (configuration not stated)	1	1.2
Nc1nonc1C(=O)NCCNC(=O)c1ccccc1F	0.91	-1.4
CC1CCN(c2nc3ccc(C(=O)N4CC(C)CC(C)C4)cc3s2)CC1 (configuration not stated)	1.2	1.5
O=C(Nc1ccc(-c2nc3ccccc3o2)cc1)c1ccc(Cl)cc1	0.82	-2.8
COc1cc(NC(=O)c2cc(OC)c(OC)c(OC)c2)c2ncccc2c1	1.1	1.1
Cc1ccccc1-c1nc(CS(=O)(=O)CC(=O)Nc2ccc(Cl)cc2)c(C)o1	1	0.11
COCC(=O)NCCc1nc2ccccc2n1Cc1cc(C)ccc1C	1	0.31
O=C(C1CCN(S(=O)(=O)c2cccnc2)CC1)N1CC=C(c2ccccc2)CC1	1.1	3.1
COc1ccccc1-c1cc(=O)n(CC(=O)NC(C)c2cccc3c2OCCO3)c2c1CCCC2 (configuration not stated)	0.82	-8.8
CCCCNS(=O)(=O)c1ccc(NC(=O)c2c(-c3ccccc3)noc2C)cc1	1.1	1.7
COc1ccc(Nc2c(-c3ccsc3)nc3cnccn23)cc1	0.95	-2.2
COc1ccccc1-n1cc(C(=O)NCC(=O)NC2CCCCCC2)c2ccccc2c1=O	0.93	-0.81
COc1ccc(CN(C(=O)c2ccc(C)cc2)C2CCS(=O)(=O)C2)cc1 (configuration not stated)	1.1	0.11
Cc1ccc(O)c(Nc2cc(C)nc3ncnn23)c1	0.88	-2.1
COc1ccc(OC)c2[nH]c(=O)c(CCNS(=O)(=O)c3ccc(F)cc3)cc12	1.1	1.5
CCN(CC)C(=O)c1c[nH]c2ccc(S(=O)(=O)N(C)c3ccc(F)cc3)cc2c1=O	1.1	0.85
CC1CCN(C(=O)c2ccc3c(c2)C(=O)N(CCC2=CCCCC2)C3=O)CC1	1.1	3.5
Cc1ccccc1NCc1nc2ccccc2n1C	1	0.6
COc1ccc(C(=O)Nc2sc3c(c2C(N)=O)CCCC3)cc1	0.99	-0.14
O=C1CC(Nc2ccc(N3CCOCC3)cc2)C(=O)N1c1ccc(F)cc1 (configuration not stated)	0.96	-0.91
CCc1ccccc1NC(=O)Nc1cc2sccc2n1CC	1	1.2
Cc1cccc(-c2nc(C(=O)NCc3cccnc3)c(C)o2)c1	1	0.16
CCOc1ccc(S(=O)(=O)Nc2ccc(-c3csc(C)n3)cc2)cc1	1	1.9
COc1ccc(-c2nnc(N3CCC(C)CC3)c3ccccc23)cc1	0.92	-0.67
O=C(Nc1ccc(-c2nc3ncccc3o2)cc1)c1cccc(Cl)c1	0.96	-0.87
Cc1nn(Cc2c(Cl)cccc2Cl)c(C)c1NC(=O)c1cc(-c2cccc(O)c2)on1	0.97	-1.1
Cc1ccc(CNC(=O)c2ccc3c(c2)N(Cc2ccc(F)cc2)C(=O)CS3)cc1	0.97	-0.29
O=C(NCc1ccccc1Cl)c1ccc(CNc2c(NC3CCCC3)c(=O)c2=O)cc1	0.98	-0.16
CC1CC(C)CN(C(=O)c2ccc3c(c2)N(Cc2ccccc2)CCS3)C1 (configuration not stated)	0.62	-0.51
O=S(=O)(c1ccc(Cl)cc1)c1nc(-c2ccco2)oc1N1CCOCC1	1.1	0.6
CCOC(=O)N1CCN(c2c(NCc3ccc(C)cc3)c(=O)c2=O)CC1	1	0.65
O=C(NCCN1CCCCCC1)C1CCN(c2nc3ccccc3[nH]2)CC1	0.98	-0.17
O=C(CN1CCN(Cc2ccccc2)C1=O)NCCc1ccccc1	0.88	-1.6
Cc1ccccc1CN1C(=O)C(O)(CC(=O)c2ccncc2)c2cc(Cl)ccc21 (configuration not stated)	0.65	-0.46
COc1ccccc1CNc1ccc2c(c1)ncn2C(C)(C)C	0.66	-9.6
COc1ccccc1CC(=O)Nc1ccc(-c2noc(-c3cc(Cl)ccc3OC)n2)cc1	1.1	2.1
CCC1Oc2ccc(C)cc2N(CC(=O)NC2CCCC2)C1=O (configuration not stated)	1.1	1.8

# Random excerpt: two compounds from above, in no set order.
smiles	CBX7 inh	CBX7 inh z-score
COc1ccccc1CNc1ccc2c(c1)ncn2C(C)(C)C	0.66	-9.6
Cc1ccccc1CN1C(=O)C(O)(CC(=O)c2ccncc2)c2cc(Cl)ccc21 (configuration not stated)	0.65	-0.46

# Next structures follow.
smiles	CBX7 inh	CBX7 inh z-score
c1cncc(-c2nc(NC3CCCCC3)c3ccccc3n2)c1	1	1.2
COc1cccc(-c2nc(-c3ccc(NC(=O)Cc4ccccc4OC)cc3)no2)c1	0.98	-0.39
CCN1CCc2c(sc(NC(=O)c3ccc(S(=O)(=O)N4CCOCC4)cc3)c2C(=O)OC)C1	1	1.9
COc1ccc2nc(NC(=O)Cc3nn(C)c(=O)c4ccccc34)sc2c1	0.87	-1.8
Cc1oc(-c2ccccc2F)nc1CN1CCCC(C(=O)NC2CC2)C1 (configuration not stated)	1	0.064
O=C(NCc1ccc2c(c1)OCO2)c1csc2c1CCCC2	0.98	-0.66
COc1cccc(NC(=O)c2nn(-c3cc(OC)cc(OC)c3)c(=O)c3ccccc23)c1	1	0.5
CCC(=O)N1c2ccc(S(=O)(=O)N3CCN(c4cccc(Cl)c4)CC3)cc2CC1C (configuration not stated)	1.2	0.67

# Overlap with the part before: 4 compounds, followed by the next part.
smiles	CBX7 inh	CBX7 inh z-score
Cc1oc(-c2ccccc2F)nc1CN1CCCC(C(=O)NC2CC2)C1 (configuration not stated)	1	0.064
O=C(NCc1ccc2c(c1)OCO2)c1csc2c1CCCC2	0.98	-0.66
COc1cccc(NC(=O)c2nn(-c3cc(OC)cc(OC)c3)c(=O)c3ccccc23)c1	1	0.5
CCC(=O)N1c2ccc(S(=O)(=O)N3CCN(c4cccc(Cl)c4)CC3)cc2CC1C (configuration not stated)	1.2	0.67
CCCN(C(=O)CCc1nc(-c2ccc(C)cc2)no1)c1ccc(OCC)cc1	1.1	2.6
CCOC(=O)C1CCCN(C(=O)Cn2nc(Cc3cccnc3)c3ccccc3c2=O)C1 (configuration not stated)	1.1	1.5
CCOC(=O)C1CCN(c2c(NCc3ccc(F)cc3)c(=O)c2=O)CC1	0.91	-0.9
O=C(O)CCC(=O)N1CCc2cc(S(=O)(=O)NCc3ccc4c(c3)OCO4)ccc21	0.85	-2.5
Cc1cc2cc(-c3ccccc3)cn2c(N2CCOCC2)c1C#N	1.3	8.9
COc1ccc(Cn2c(=O)[nH]c3cc(C(=O)NC4CCN(Cc5ccccc5)CC4)ccc3c2=O)cc1	1	0.19
CCOC(=O)c1sc2nc(C)nc(NCc3ccccc3)c2c1C	1.1	2
Cc1ccccc1Cn1cc(NC(=O)c2onc(C)c2Cl)cn1	1	1.6
CC1CC(C)CN(S(=O)(=O)c2ccc(C(=O)Nc3c(C(N)=O)oc4ccccc34)cc2)C1 (configuration not stated)	1	0.38
CC1CCCN(C(=O)C2(S(=O)(=O)c3ccc(Cl)cc3)CC2)C1 (configuration not stated)	1.1	0.9
CCOc1ccc(-n2c(Cc3cc(=O)[nH]c(=O)[nH]3)nnc2SCc2ccccc2C)cc1	0.93	-1.9
COc1ccc(C(=O)Nc2nc3c(s2)Cc2cc(OC)ccc2-3)cc1	0.9	-1.4
CCCNC(=O)C1CCN(c2nnc(-n3cccc3)s2)CC1	1	1.7
c1ccc(-c2csc(N3CCc4ccccc43)n2)cc1	1.1	4
CCc1ccc(-c2csc(NC(=O)Cc3cccc4ccccc34)n2)cc1	0.92	-3.9
O=C(Nc1nc(-c2ccccc2)c(C(=O)c2ccccc2)s1)c1ccc(F)cc1	0.93	-1.2
COc1ccccc1N1C(=O)CC(N2CCN(Cc3ccc4c(c3)OCO4)CC2)C1=O (configuration not stated)	1.1	2.6
CCc1ccc2nc(N3CCC(C(=O)NCC4COc5ccccc5O4)CC3)sc2c1 (configuration not stated)	1.2	0.44
O=C(c1ccc(NC2=NC3CS(=O)(=O)CC3S2)cc1)N(CCO)Cc1ccccc1 (configuration not stated)	1	0.017
COc1ccc(OC)c(NC(=O)c2c(NCc3cccs3)sc3c2CCC3)c1	0.95	-0.53
COc1ccc(-c2cc(C(=O)Nc3ccc(OC)cc3OC)no2)cc1	1.3	0.91
O=C(c1cc(-c2ccc(Cl)cc2)on1)N1CCOCC1	0.99	-0.0098
Cc1cc(Cl)ccc1NC(=O)C(=O)NCc1ccncc1	1.1	2.1
Nc1nc(-c2ccc(F)cc2F)cs1	0.98	-0.47
CC1=C(C(=O)Nc2ccc(C)cn2)C(c2cccc(Br)c2)C2=C(CCCC2=O)N1 (configuration not stated)	1.3	0.56
CCN1CCN(CCCNC(=O)c2cn(C)c(=O)c3cc(OC)c(OC)cc23)CC1	1.1	0.81

# Assay outcomes as filed in PubChem.

# Not all compounds are listed; count on the stated rates, not on these rows.
